Bioassay records deposited in PubChem BioAssay by Broad Institute.
FGF22 binding – binders of human FGF22 protein, primary screen, FGF22 synaptogenesis inhibitor project, biophysical, thermal shift, single point; Fibroblast growth factor 22 (Homo sapiens), Q9HCT0; recombinant FGF22 thermal shift, SYPRO orange fluorescence; percent of sucrose octasulfate shift, DMSO zero; calls only at 9.99 µM; 340,000 compounds, 1.5% hits; AID 651658, 2012;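 active = melting point raised past a set limit in the mean and every replicate; inconclusive = no clear call; three in four hits are not shown here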
Target sequence (Q9HCT0 whole entry, looked up): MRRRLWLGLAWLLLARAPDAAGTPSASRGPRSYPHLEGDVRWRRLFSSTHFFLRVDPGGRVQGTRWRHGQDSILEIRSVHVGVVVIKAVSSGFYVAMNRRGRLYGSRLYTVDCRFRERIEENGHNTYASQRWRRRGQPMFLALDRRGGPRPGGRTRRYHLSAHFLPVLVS
Beta cell apopt – inhibitors of cytokine-induced beta cell apoptosis, primary screen, luminescence; AID 435005, 2010; 300,000 compounds, 0.8% hits; protection from apoptosis, % (no concentration beside the values); INS-1E cytokine-induced death, ATP luminescence, 48 h; percent of positive-control rescue, neutral wells zero;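 active = all replicates at 75% or more, or half of them and the mean; inconclusive = half reach 75% but not the mean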;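 note: 0% = cytokine-treated negative control wells and 100% = positive control rescue; higher means more ATP so stronger rescue from cytokine killing; wells of about 40 µL received 100 nL stock; the first replicate is given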
ALR inh – inhibitors of human ALR sulfhydryl oxidase, primary screen, biochemical, H2O2 detection, HRP-luminol luminescence, single point | inhibition, % (test concentration not listed) | purified ALR, DTT oxidation | AID 485317, 2010 | FAD-linked sulfhydryl oxidase ALR (Homo sapiens), P55789 | 290,000 compounds, 3.8% hits;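 active = mean and each replicate at 75% or more; inconclusive = only one of the two met; inactive = neither met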;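 note: stock transfer was 7.5 nL into about 7.5 µL; 0% = neutral wells and 100% = wells with inactivated enzyme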
Target sequence (P55789 whole entry, looked up): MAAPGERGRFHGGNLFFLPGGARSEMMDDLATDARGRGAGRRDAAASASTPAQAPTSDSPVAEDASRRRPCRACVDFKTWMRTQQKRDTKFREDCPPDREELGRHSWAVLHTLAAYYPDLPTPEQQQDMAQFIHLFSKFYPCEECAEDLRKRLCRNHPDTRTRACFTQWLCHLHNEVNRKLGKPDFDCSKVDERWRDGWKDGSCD
rRNA inh HTS – reduced GFP signal of wild-type E. coli, primary screen, bacterial rRNA inhibitor project, GFP/RFP fluorescence, OD600, single point. E. coli WT GFP vs humanized-ribosome RFP mutants, 24 h; active compounds read low; DMSO median 0, no signal -100. GFP signal change (wild-type ribosome), % (concentration not given with the values). 350,000 compounds, 1.6% hits;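 active = significant combined selectivity score with lowered wild-type GFP, culture density cut under 30%, mutant RFP and density less affected; inactive = any of these conditions unmet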; note: one replicate is shown; some compounds called inactive have numbers as strong as hits
RanGTP-Imp inh – inhibitors of RanGTP-importin-beta interaction, primary screen, biochemical, FRET, CFP-Ran, YFP-importin-beta, homogeneous. cell-free CFP-Ran/YFP-importin-beta FRET ratio. Ran GTPase (GTP-bound) - importin-beta complex. AID 2216, 2009. inhibition, % (no concentration beside the values). 300,000 compounds, 1.1% hits;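 active = most replicates above 15%; inconclusive = exactly half above 15%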;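 note: 0% = DMSO wells and 100% = Ran loaded with GDP instead of GTP; wells of about 40 µL received 100 nL stock; the first replicate is given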
T cruzi inh – inhibitors of intracellular T. cruzi growth, primary screen, luminescence, NIH3T3 host cells. T. cruzi beta-gal in NIH3T3, 90 h. inhibition, % (concentration not given with the values). 300,000 compounds, 1.4% hits. AID 1885, 2009;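 active = mean inhibition across valid replicates above about 55%, limit read from the data; inconclusive = mean below that limit but half or more replicates reach it; inactive = mean below it, under half of replicates reach it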;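 note: signal also drops with host cell toxicity which is not excluded here; 0% = plate median of DMSO wells and 100% = zero luminescence signal; higher percent means less beta-gal luminescence so fewer parasites; stock transfer was 50 nL into about 50 µL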
Calb FLC – C. albicans growth inhibition with fluconazole, primary screen, CaCi-2 strain, Alamar Blue fluorescence; AID 1979, 2009; C. albicans CaCi-2 (fluconazole-resistant clinical isolate) + fluconazole, 48 h; 300,000 compounds, 0.57% hits; growth inhibition, % (concentration not given with the values);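 active = most replicates above 75%; inconclusive = exactly half above 75%; inactive = most below 75%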;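 note: all wells also contain fluconazole at 8 µg/ml as a sub-toxic cotreatment; 0% = median of DMSO wells and 100% = median of geldanamycin control wells; wells of about 8 µL received 7.5 nL stock; the first replicate is given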
MLL AF4-AF9 inh – inhibitors of AF4 peptide binding to AF9, primary screen, biochemical, AlphaScreen, biotin-AF4 peptide, FLAG-AF9, single point. Protein AF-9 (Homo sapiens), P42568. 350,000 compounds, 0.47% hits. AID 651704, 2012. inhibition, % at 10 µM;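 active = every replicate reaching a set inhibition limit, whatever the replicate mean, cut at about 25% in these data; inconclusive = mean inhibition reaches that limit but some replicates miss it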;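 note: 0% = plate neutral control median and 100% = total signal loss; the record names both 10 and 1 µM as test concentration; the first replicate is given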
Target sequence (P42568 whole entry, looked up): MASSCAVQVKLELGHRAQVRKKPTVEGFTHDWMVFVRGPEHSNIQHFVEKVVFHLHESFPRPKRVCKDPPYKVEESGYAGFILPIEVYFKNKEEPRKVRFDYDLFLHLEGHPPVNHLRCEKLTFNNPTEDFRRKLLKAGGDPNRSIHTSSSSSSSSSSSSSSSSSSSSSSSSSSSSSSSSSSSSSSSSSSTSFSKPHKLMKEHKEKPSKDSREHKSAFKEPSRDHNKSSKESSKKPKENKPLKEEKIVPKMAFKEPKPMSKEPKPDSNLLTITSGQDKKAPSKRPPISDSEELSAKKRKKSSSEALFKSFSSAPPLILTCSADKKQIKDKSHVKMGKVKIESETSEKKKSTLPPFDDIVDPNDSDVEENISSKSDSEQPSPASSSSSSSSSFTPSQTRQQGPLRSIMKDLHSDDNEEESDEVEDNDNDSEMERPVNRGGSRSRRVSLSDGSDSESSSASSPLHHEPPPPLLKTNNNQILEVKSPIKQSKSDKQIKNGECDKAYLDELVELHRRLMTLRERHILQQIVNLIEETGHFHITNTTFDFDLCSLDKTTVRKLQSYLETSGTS
rRNA inh HTS OD600 – recorded beside rRNA inh HTS, whose call it bears; OD600 change, %; measured here: OD600 growth;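 optical density of the mix in the first replicate; 0 = DMSO median and -100 = no signal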
rRNA inh HTS RFP – also measured in rRNA inh HTS; calls as there; RFP signal change, %; measured here: RFP humanized mutant strains;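 first replicate; 0 = DMSO median and -100 = no signal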
* marks the source's active call; other numbers are inactive results; i = inactive; ? = inconclusive; nt = not tested or not shown.

SMILES	FGF22 binding	Beta cell apopt	ALR inh	rRNA inh HTS	rRNA inh HTS OD600	rRNA inh HTS RFP	RanGTP-Imp inh	T cruzi inh	Calb FLC	MLL AF4-AF9 inh
O=C(NCC(=O)N(Cc1ccccc1)C(C(=O)NCC1CCCO1)c1ccccc1)c1cccs1 (stereo not drawn)	nt	-4	-2	nt	nt	nt	-7.2	-5	-9	nt
CC(C#Cc1ccc2c(c1)COc1c3ccccc3nn1-2)OC(C)(C)C (stereo not drawn)	i	-4	nt	6	0	-1.8	3.0	3	2	-0.6
CCOC(=O)Cc1nnc2c(Nc3ccc(Cl)cc3)nc3nonc3n12	nt	27	-1	nt	nt	nt	1.6	24	-9	nt
COc1cc(C(C)=O)ccc1OCc1nnc(-c2ccccc2Br)o1	i	3	-5	2	-31	-0.2	3.6	0	4	1.0
COC(=O)Cc1[nH]n(-c2ccccc2)c(=O)c1C=Nc1ccc(C)cc1	i	-5	nt	8	0	-3.9	-1.2	-13	-4	5.6
Cn1c(SCc2ccccc2)nnc1-c1ccco1	i	3	-2	13	12	-0.4	0.0	-6	-1	-0.5
O=C(Nc1cccc(O)c1)c1ccc(NC(=O)C2CCCO2)cc1 (stereo not drawn)	i	1	20	2	7	-3.5	0.2	10	-11	-1.3
O=C(NNC(=O)c1ccc(-c2ccccc2)cc1)Nc1ccccc1	i	-6	nt	-4	4	-2.5	2.7	-2	-1	1.7
Cc1nc2ccc(NC(=O)NCc3ccco3)cc2s1	i	-4	-12	-6	-1	-3.2	6.3	1	18	-46
Nc1ccccc1C(=O)Nc1ccc(Cl)cc1Cl	i	-4	-3	-3	4	-4.7	1.9	-8	-24	0.2
Cc1nnc(Oc2ccc([N+](=O)[O-])cc2)c2ccccc12	i	-6	-3	8	1	3.4	1.3	-10	-3	-1.3
O=C(NN1CCOCC1)c1cc(-c2ccc(Cl)c(Cl)c2)nc2ccccc12	nt	0	1	nt	nt	nt	-7.5	1	?	nt
Cc1cc(C)cc(C(=O)NCC(=O)N2CCC(C(N)=O)CC2)c1	i	1	-3	8	5	2.4	nt	nt	nt	8.7
CC(C)(C)c1ccc(C(=O)C2CCCN(C(=O)c3ccccn3)C2)cc1 (stereo not drawn)	i	nt	nt	-3	4	5.0	-4.2	17	-2	-1.4
CCn1c(=O)n(CCc2ccccc2)c(=O)c2c3c(sc21)CCCC3	i	8	-4	11	4	-4.1	-0.9	33	?	-16
Cc1cc(CC(=O)O)n(C)c1C(=O)c1ccc(Cl)cc1	i	-4	-4	-4	-13	-0.1	nt	nt	nt	nt
O=C(NCc1ccco1)C1CCN(S(=O)(=O)c2ccc(-n3cnnn3)cc2)CC1	nt	0	9	nt	nt	nt	-2.5	-9	6	nt
CC(C)NS(=O)(=O)c1ccc(CCC(=O)NCc2ccccn2)cc1	i	1	2	6	9	-1.5	0.8	-14	-6	-0.8
Cn1c(=O)n(CC(=O)NCC2CCCO2)c(=O)c2c3c(sc21)CCCC3 (stereo not drawn)	i	-6	-3	11	13	-2.8	2.3	-3	7	-1.2
O=C(N/N=C/c1c(-c2ccccc2)[nH]c2ccccc12)c1cccnc1	i	0	62	-18	-16	-11	0.7	8	10	7.0
COc1cccc(C(=O)Oc2ccc3ccc(O)cc3c2)c1	nt	1	-49	nt	nt	nt	-7.2	-10	5	nt
Cc1ccc(C(=O)CSc2n[nH]c(C)n2)cc1	nt	-5	1	nt	nt	nt	-5.1	-9	0	nt
O=C(NCc1n[nH]c(=S)n1-c1ccc(F)cc1)c1ccc(S(=O)(=O)N2CCOCC2)cc1	i	-2	36	13	20	-1.2	0.0	-5	43	-1.6
Fc1ccccc1Oc1nc(-c2ccncc2)nc2ccccc12	i	-5	-9	nt	nt	nt	-2.8	12	0	-1.0
Cc1ccc(S(=O)(=O)NCCC(=O)NCC(c2cccs2)N2CCOCC2)cc1 (stereo not drawn)	i	nt	0	7	13	0.3	1.7	-5	-4	2.8
CC(C)CCOP(=O)(c1ccc(N(C)C)cc1)C(O)c1ccc(N(C)C)cc1 (stereo not drawn)	i	8	50	2	-6	-0.5	5.1	14	-2	9.2
COc1ccc(C(=O)C[n+]2cccc(C)c2)cc1	nt	-5	-5	nt	nt	nt	-1.6	-9	-17	nt
O=C(NCC(c1cccnc1)N1CCOCC1)c1cccc(Cl)c1 (stereo not drawn)	nt	6	nt	nt	nt	nt	0.5	3	-9	nt
COc1ccc(CN2C(=O)c3oc4ccccc4c(=O)c3C2c2ccc(O)c(OC)c2)cc1 (stereo not drawn)	i	nt	nt	2	3	5.7	4.4	0	-8	-1.1
CCOC(=O)c1c(CSc2ccsc2)n(C)c2cc(Br)c(O)c(CN(C)C)c12	i	1	97*	-34	-20	19	-2.6	12	-1	16
COc1ccccc1NC(=S)NC(=O)CC(C)C	nt	4	2	nt	nt	nt	12	-42	0	nt
O=C(Cn1cnc2c(nnn2Cc2ccccc2)c1=O)c1ccccc1	i	-8	-6	1	3	-5.6	-0.2	1	-5	-12
O=C(CSc1ccc(-c2ccco2)nn1)c1ccc(F)cc1	nt	-4	53	nt	nt	nt	9.5	-3	-4	nt
CN1CCC(=C(c2ccccc2)c2ccc(Br)cc2)CC1	i	8	nt	-46	-75	-9.6	-2.6	nt	-9	20
COc1ccccc1/C=C1/SC(=O)N(CCC(=O)Nc2ccc(S(=O)(=O)Nc3nccs3)cc2)C1=O	i	-1	2	-3	-12	8.6	-0.9	-7	-2	1.6
O=C(c1ccco1)N1CCN(c2nc(C3CC3)nc3sc4c(c23)CCCC4)CC1	nt	5	-3	nt	nt	nt	8.9	?	-8	nt
CCOC(CCNC(=O)c1cn(C)c(=O)c2c1c1ccccc1n2C)OCC	i	-2	-18	16	17	1.0	0.5	-3	-1	0.8
O=C(NCCN1CCCC1)c1ccc(Cl)cc1	i	1	-9	4	2	1.3	-3.5	-8	-2	-1.2
CN(C)CCNC(=O)c1cc2c(=O)n(C)c3ccccc3c2n1C	i	3	9	-6	4	2.9	0.5	7	0	-2.5
O=C(NN=C1CCCC1)c1[nH]c2ccc(Br)cc2c1-c1ccccc1	i	nt	3	-39	-33	-7.5	13	nt	7	-11
CCOC(=O)C(=NCCCN1CCOCC1)NNc1cccc(C(F)(F)F)c1	i	-2	98*	6	8	3.5	0.8	-8	129*	6.9
CCNC(=O)CC1C(=O)N(c2ccc(F)cc2)C(=O)N1Cc1ccccn1 (stereo not drawn)	nt	2	-6	nt	nt	nt	-3.5	0	7	nt
C=CCNCCCCOc1ccc(OCC)cc1	nt	0	-4	15	15	6.8	5.1	19	-12	nt
CCc1nc(SCC(=O)O)c2c3c(sc2n1)COC(C)(C)C3	i	6	-5	3	4	2.1	4.5	-7	1	-5.9
Oc1ccc(/C=N/Nc2cccc(Cl)n2)c(O)c1	i	-8	nt	-14	-9	0.2	3.5	-6	-4	21

As entered above:
Oc1ccc(/C=N/Nc2cccc(Cl)n2)c(O)c1 in Beta cell apopt: -8
Fc1ccccc1Oc1nc(-c2ccncc2)nc2ccccc12 in MLL AF4-AF9 inh: -1.0

Next part
SMILES	FGF22 binding	Beta cell apopt	ALR inh	rRNA inh HTS	rRNA inh HTS OD600	rRNA inh HTS RFP	RanGTP-Imp inh	T cruzi inh	Calb FLC	MLL AF4-AF9 inh
Oc1cccnc1Sc1cccc(C(F)(F)F)c1	i	-2	-3	1	8	-3.2	0.0	-8	-25	nt
COc1ccc(-c2ccc(CCC(=O)O)n2CC(=O)Nc2cccc(OC)c2)cc1	i	-4	23	8	9	2.4	nt	-5	-2	0.9
Cc1nnc(SCC(=O)c2ccc(Cl)cc2)s1	i	-4	64	5	9	-1.6	3.0	2	14	-4.5
CCNC(=O)c1ccc(N(C)S(=O)(=O)c2cccs2)cc1	i	0	3	8	0	1.5	-0.5	-3	2	-0.8
CC(Cc1ccccc1)NC(=O)CC(c1ccccc1)c1ccccc1O (stereo not drawn)	i	4	-16	-39	-45	-11	3.8	4	19	-1.6
CN1C(=O)CC(c2ccco2)Sc2ccccc21 (stereo not drawn)	nt	-2	-3	nt	nt	nt	2.2	2	2	nt
NNC(=O)c1cc2cc(Oc3ccccc3)ccc2[nH]1	i	nt	-1	10	7	-0.1	-0.5	5	-1	2.7
CC(C)(C)OC(=O)C[C@H]1C/C=C\C[C@@H](CC(=O)N[C@@H](CO)Cc2ccccc2)C(=O)N2CCC[C@H]2COC1=O	i	-6	2	11	20	7.6	nt	nt	nt	1.0
NC(=O)C1CCCN(C(=O)c2ccc(Cl)cc2)C1 (stereo not drawn)	i	1	-1	14	12	14	4.3	-2	-15	4.6
O=C(O)CCc1ccc(-c2ccccc2)o1	nt	-3	9	nt	nt	nt	-3.7	6	11	nt
O=C(O)CCCN1C(=O)C2C3CC(C2C1=O)C1C(c2ccccc2)c2sc(=O)n(-c4ccccc4)c2SC31 (stereo not drawn)	i	-4	-12	-12	-16	1.0	-2.7	-5	46	2.2
COC(=O)CC1(C(=O)OC)Oc2ccc(Br)cc2C(=O)N1c1cc(Cl)c(Cl)cc1Cl (stereo not drawn)	i	3	-28	-9	-16	-3.0	1.2	13	-4	4.1
C=CCc1ccc(OCC(O)CO)c(OC)c1 (stereo not drawn)	i	nt	-7	8	22	1.7	3.5	-14	-22	0.7
Cc1nn(C)c(C)c1NS(=O)(=O)c1ccccc1	nt	-6	-33	nt	nt	nt	-0.1	2	0	nt
COC(=O)c1ccc(N(CC(=O)NCC2CCCO2)C(=O)CCC(=O)Nc2cc(C)on2)cc1 (stereo not drawn)	i	2	nt	8	15	-2.1	0.9	nt	-2	-1.3
N#Cc1cc([N+](=O)[O-])ccc1NCC1CCCO1 (stereo not drawn)	i	-5	-3	2	6	0.7	0.7	-7	3	-0.6
c1ccc(NCC2OCc3ccccc3CO2)cc1	nt	7	98*	nt	nt	nt	2.0	3	-4	nt
CC(=O)c1sc(NC(=O)c2c(F)cccc2F)nc1C	nt	-2	-5	nt	nt	nt	3.4	-14	56	nt
COc1ccc2c(c1)c1c3n2CCN(C)C3=NCC1	nt	7	42	nt	nt	nt	2.2	-2	-4	nt
CCCCN(CC)CCCNC(=O)c1ccc(CSc2nc3ccncc3[nH]2)cc1	i	1	98*	20	22	0.0	-4.4	-10	-7	1.9
COc1ccc(Cc2nnc(NC(=O)C3CCN(C(=O)c4ccco4)CC3)s2)cc1	i	4	-1	3	5	-0.4	-0.2	6	-2	1.3

Only part of the results is shown. The share of hits here may be higher or lower than overall.
